High-throughput results from PubChem BioAssay.
DUX4 txn inh = blocks DUX4-driven transcriptional activation. 293T-iDUX4 ZSCAN4-Gaussia luciferase reporter, 24 h; active compounds read low. activity change, negative = inhibition, % (concentration not given with the values). 37,000 compounds, 0.8% hits. AID 1224904;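 active = -10% or lower and over 25 points stronger than a control reporter; inconclusive = -10% or lower with a smaller gap; inactive = above -10%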;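 note: 0% = median of neutral control wells and -100% = median of positive control wells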
DUX4 txn inh difference = also measured in DUX4 txn inh; calls as there; Gaussia minus Italica difference, %; measured here: selective DUX4 reporter inhibition;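 worked out from the two reporters; negative = selective loss of the DUX4 reporter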
DUX4 txn inh control = further read-out of DUX4 txn inh, marked with its call; activity change, negative = inhibition, %; measured here: Italica tet-on control reporter;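 0 = neutral control and -100 = positive control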
* = called active by the depositor; ? = inconclusive; . = not tested or not shown.

SMILES	DUX4 txn inh	DUX4 txn inh difference	DUX4 txn inh control
CC(C)NC(=O)N(C)C[C@@H]1Oc2ccc(NS(=O)(=O)c3ccc(F)cc3)cc2CC(=O)N([C@H](C)CO)C[C@H]1C	1	2	-0.5
C[C@H](CO)N1C[C@H](C)[C@@H](CN(C)C(=O)C2CC2)Oc2cc(Br)ccc2S1(=O)=O	0	-1	1.0
C[C@H](CO)N1C[C@H](C)[C@H](CN(C)S(=O)(=O)c2cccs2)OCc2cn(nn2)CCCC1=O	4	5	-1.1
Cc1noc(C)c1NC(=O)N(C)C[C@H]1Oc2ccc(NC(=O)CCN3CCOCC3)cc2CC(=O)N([C@H](C)CO)C[C@H]1C	6	2	3.7
COc1ccc(C#Cc2ccc([C@@H]3[C@@H](CO)N4C(=O)CN(C(=O)NC(C)C)C[C@@H]34)cc2)cc1	?	.	.
COc1cccc(C#Cc2ccc([C@H]3[C@@H](CO)N(C(=O)C4CCOCC4)[C@H]3C#N)cc2)c1	4	5	-0.5
O=C(NC1CCC1)[C@@H]1[C@@H](CO)[C@@H]2Cn3c(cccc3=O)[C@H]1N2Cc1cc(F)ccc1F	6	4	2.2
C[C@H]1CN([C@@H](C)CO)C(=O)c2c(c3ccccc3n2C)-c2ccccc2CO[C@H]1CN(C)C(=O)CCN(C)C	5	-1	5.9
N#C[C@@H]1[C@H](c2ccc(C#Cc3cccc(F)c3)cc2)[C@@H](CO)N1C(=O)C1CCC1	1	3	-2.5
CN(C)CC#Cc1ccc([C@@H]2[C@H](CO)N3CCCCN(C(=O)C4CCC4)C[C@@H]23)cc1	23	25	-2.0
COc1ccc2c3c(n(C)c2c1)[C@@H](CO)NCC31CN(C(=O)c2ccc(F)cc2)C1	?	.	.
COc1ccc(NC(=O)N2C[C@H]3[C@@H](c4ccccc42)[C@@H](CO)N3C(=O)C2CC2)cc1	5	4	1.0

Retrieved by compound from the entries so far, 4 records:
SMILES	DUX4 txn inh	DUX4 txn inh difference	DUX4 txn inh control
COc1ccc(NC(=O)N2C[C@H]3[C@@H](c4ccccc42)[C@@H](CO)N3C(=O)C2CC2)cc1	5	4	1.0
COc1cccc(C#Cc2ccc([C@H]3[C@@H](CO)N(C(=O)C4CCOCC4)[C@H]3C#N)cc2)c1	4	5	-0.5
COc1ccc(C#Cc2ccc([C@@H]3[C@@H](CO)N4C(=O)CN(C(=O)NC(C)C)C[C@@H]34)cc2)cc1	?	.	.
C[C@H](CO)N1C[C@H](C)[C@H](CN(C)S(=O)(=O)c2cccs2)OCc2cn(nn2)CCCC1=O	4	5	-1.1

(next part)
SMILES	DUX4 txn inh	DUX4 txn inh difference	DUX4 txn inh control
O=C(c1cccc(F)c1)N1C[C@@H]2[C@H](c3ccccc31)[C@@H](CO)N2C(=O)C1CCCCC1	4	3	1.5
COc1cccc(C(=O)N2C[C@H]3[C@@H](c4ccccc42)[C@H](CO)N3C(=O)c2ccccc2)c1	3	-1	4.3
COc1ccc(-c2ccccc2[C@H]2[C@@H](CO)N(C(=O)C3CCOCC3)[C@H]2C#N)cc1	13	9	3.7
C[C@H](NC(=O)C[C@@H]1CC[C@@H]2[C@@H](COc3ccc(NS(=O)(=O)c4ccc(Cl)cc4)cc3C(=O)N2C)O1)c1ccccc1	0	-2	2.2
COc1ccccc1CN1[C@@H](CO)[C@@H]2c3ccccc3N(C(=O)c3ccncc3)C[C@@H]21	3	4	-1.3
CCC(=O)Nc1ccc2c(c1)C(=O)N(C)[C@@H]1CC[C@H](CC(=O)N[C@H](C)c3ccccc3)O[C@@H]1CO2	0	-5	4.6
COc1ccc(NC(=O)N(C)C[C@@H]2Oc3ccc(N(C)C)cc3C(=O)N([C@@H](C)CO)C[C@@H]2C)cc1	-1	2	-2.5
C[C@H](CO)N1C[C@H](C)[C@@H](CN(C)S(=O)(=O)c2ccc(Oc3ccccc3)nc2)OCc2cn(nn2)CCCC1=O	8	9	-0.5
CCCNC(=O)N1CC2(CN(Cc3ccccn3)C2)c2c(n(C)c3cc(OC)ccc23)[C@H]1CO	5	1	3.9
O=C(Nc1ccc(F)cc1)N1CC(=O)N2[C@H](CO)[C@H](c3ccc(C#Cc4ccccc4)cc3)[C@H]2C1	?	.	.
COc1ccc(CN(C)C[C@H]2OCCCC[C@H](C)Oc3ccc(NS(C)(=O)=O)cc3C(=O)N([C@H](C)CO)C[C@H]2C)cc1	4	0	3.9
COCC(=O)N1CC[C@@H]2[C@H]1c1cc(-c3cccc(C(=O)N(C)C)c3)ccc1N[C@@H]2CO	?	.	.
C[C@@H]1CN([C@H](C)CO)C(=O)CCCn2cc(nn2)CO[C@@H]1CN(C)C(=O)OCc1ccccc1	3	-8	11
CN(C)C(=O)c1ccc(-c2ccccc2[C@H]2[C@@H](CO)N(C(=O)C3CCC3)[C@H]2C#N)cc1	11	0	11
CCCNC(=O)c1cc2c(c(-c3cccc(-c4ccc(F)cc4)c3)n1)[C@H](CCO)N([S@@](=O)C(C)(C)C)C2	2	7	-4.3
C[C@@H]1CCCCO[C@H](CN(C)Cc2ccc3c(c2)OCO3)[C@H](C)CN([C@H](C)CO)C(=O)c2cc(N(C)C)ccc2O1	-3	0	-3.2
C[C@@H]1CN([C@@H](C)CO)C(=O)c2c(c3ccccc3n2C)-c2ccccc2CO[C@@H]1CN(C)C(=O)C1CC1	5	3	2.6
C/C=C/c1ccccc1[C@H]1[C@@H](C#N)N(C(=O)Cc2ccccn2)[C@@H]1CO	12	4	8.5
C[C@H]1CCCCO[C@H](CN(C)Cc2ccc(C(=O)O)cc2)[C@@H](C)CN([C@@H](C)CO)C(=O)c2cc(NS(=O)(=O)c3ccc(F)cc3)ccc2O1	3	2	0.9
CO[C@H]1CN(C)C(=O)c2cc(NC(=O)c3ccccc3F)ccc2OC[C@@H](C)NC[C@@H]1C	4	-3	7.1
Cc1noc(C)c1S(=O)(=O)N(C)C[C@@H]1OCCCC[C@@H](C)Oc2ccc(NC(=O)CCC(F)(F)F)cc2C(=O)N([C@H](C)CO)C[C@H]1C	0	1	-1.0
C[C@H](CO)N1C[C@H](C)[C@H](CN(C)C(=O)NC2CCCCC2)Oc2ccc(NC(=O)Nc3cccc4ccccc34)cc2C1=O	-1	0	-1.7
COc1cccc(CNC(=O)[C@H]2[C@H](CO)[C@H]3Cn4c(ccc(C5=CCCCC5)c4=O)[C@@H]2N3)c1	8	6	2.0
C[C@H](O)C#Cc1cnc2c(c1)C(=O)N([C@@H](C)CO)C[C@@H](C)[C@H](CN(C)C(=O)CN1CCOCC1)O2	-3	-2	-0.6
CCC(=O)N1CC[C@H]2[C@@H]1c1cc(-c3cccc(OC)c3)ccc1N(C)[C@H]2CO	-4	33	-36
O=C(c1cccc(F)c1)N1CC2(C1)[C@H](c1ccccc1)[C@@H](CO)N2C(=O)C1CCC1	2	5	-2.5
CCS(=O)(=O)N1CCCCN2[C@H](C1)[C@H](c1ccc(-c3ccccc3F)cc1)[C@@H]2CO	20	4	16
COc1ccc(C#Cc2ccc3c(c2)[C@@H]2[C@@H](CCN2S(=O)(=O)c2ccccc2C)[C@@H](CO)N3)cc1	11	2	9.5
C[C@@H]1CN([C@H](C)CO)C(=O)c2cc(C3=CCCCC3)cnc2O[C@@H]1CN(C)Cc1ccccc1C(=O)O	-5	-4	-1.2
C[C@H](CO)N1C[C@H](C)[C@H](CN(C)C(=O)c2cccc(F)c2)Oc2cc(-c3cncnc3)ccc2S1(=O)=O	-1	-7	6.2
CN(C)C(=O)[C@@H]1[C@@H](CO)[C@@H]2Cn3c(ccc(-c4ccccc4F)c3=O)[C@H]1N2C(=O)c1ccncc1	-4	-4	0.0
CCCN1C[C@H](C)[C@H](OC)CN(C)C(=O)c2cc(NC(=O)Nc3cccc(F)c3)ccc2OC[C@H]1C	-10	-8	-1.2
CNC(=O)C[C@H]1CC[C@H]2[C@@H](COC[C@@H](O)CN2S(=O)(=O)c2ccc(Oc3ccccc3)cc2)O1	17	15	1.8
COc1ccccc1C#Cc1cnc2c(c1)C(=O)N([C@H](C)CO)C[C@@H](C)[C@H](CN(C)S(=O)(=O)c1cn(C)cn1)O2	-2	0	-1.7
CCCN1C[C@H](C)[C@H](OC)CN(C)C(=O)c2ccc(NS(=O)(=O)c3cn(C)cn3)cc2OC[C@@H]1C	7	5	2.2
COc1ccc(-c2ccc([C@@H]3[C@@H](CO)N(C(=O)c4cccnc4)[C@H]3C#N)cc2)cc1	-3	2	-4.7
C[C@H](CO)N1C[C@H](C)[C@H](CN(C)S(=O)(=O)c2cccs2)Oc2ccc(NC(=O)Nc3cccc4ccccc34)cc2C1=O	-2	-2	0.1
O=C(NC[C@H]1[C@H](c2ccccc2)[C@@H](CO)N1Cc1ccccn1)C1CC1	-5	-7	2.2
COc1ccccc1C#Cc1ccc2c(c1)[C@@H]1[C@@H](CCN1C(=O)c1ccccc1)[C@H](CO)N2	8	3	5.1
CCN1[C@H](C(=O)NCCc2cn(C)cn2)[C@@H](CO)[C@@H]2Cn3c(ccc(-c4cccnc4)c3=O)[C@@H]21	-4	-4	0.3
CC(C)NC(=O)N1[C@H](CO)[C@@H]2c3ccccc3N(C)C[C@@H]21	2	3	-1.7
N#C[C@H]1[C@@H](c2ccc(C#Cc3ccc(F)cc3)cc2)[C@H](CO)N1c1nc(-c2ccccc2)cs1	1	1	0.1
CNC[C@H]1Oc2cc(-c3cccnc3)ccc2S(=O)(=O)N([C@@H](C)CO)C[C@H]1C	-4	-5	1.4
C[C@H](NC(=O)C[C@@H]1CC[C@H]2[C@@H](COC[C@@H](O)CN2Cc2cc(F)ccc2F)O1)c1ccccc1	-4	-5	0.1
CC(=O)N1CC2(C1)[C@H](c1ccccc1)[C@H](CO)N2Cc1ccccc1F	2	3	-1.7
Cc1ccc(S(=O)(=O)N[C@H]2C=C[C@H](CC(=O)NCc3ccc(Cl)c(Cl)c3)O[C@H]2CO)cc1	?	.	.
O=C(C1CC1)N1[C@H](CO)[C@@H](c2ccccc2)C12CN(CCC(F)(F)F)C2	-4	-7	2.6
O=C([C@H]1[C@H](CO)[C@H]2Cn3c(cccc3=O)[C@@H]1N2C(=O)c1ccc(F)cc1)N1CCCCC1	-3	-2	-0.5

Entries of single compounds, looked up by structure.
`N#C[C@H]1[C@@H](c2ccc(C#Cc3ccc(F)cc3)cc2)[C@H](CO)N1c1nc(-c2ccccc2)cs1` is entered as DUX4 txn inh: 1; DUX4 txn inh difference: 1; DUX4 txn inh control: 0.1
`O=C([C@H]1[C@H](CO)[C@H]2Cn3c(cccc3=O)[C@@H]1N2C(=O)c1ccc(F)cc1)N1CCCCC1` is entered as DUX4 txn inh: -3; DUX4 txn inh difference: -2; DUX4 txn inh control: -0.5

The list continues.
SMILES	DUX4 txn inh	DUX4 txn inh difference	DUX4 txn inh control
N#C[C@@H]1[C@H](c2ccccc2-c2ccc(F)cc2)[C@H](CO)N1C(=O)Cc1ccccc1	?	.	.
O=C(C[C@H]1C=C[C@@H](NC(=O)c2cccnc2)[C@@H](CO)O1)NCc1ccncn1	10	8	2.0
COc1cccc(S(=O)(=O)Nc2ccc3c(c2)[C@H]2C[C@@H](CC(=O)NCC(F)(F)F)O[C@@H](CO)[C@H]2O3)c1	6	3	3.1
C[C@H]1CN([C@@H](C)CO)C(=O)c2cc(-c3ccc(F)cc3)cnc2O[C@H]1CN(C)S(C)(=O)=O	-4	-3	-1.4
CN1c2ccc(-c3cccc(C#N)c3)cc2[C@@H]2[C@@H](CCN2C(=O)CC2CC2)[C@H]1CO	?	.	.
CO[C@@H]1CN(C)C(=O)c2cc(NC(=O)Nc3ccc(Cl)c(Cl)c3)ccc2OC[C@H](C)NC[C@@H]1C	?	-2	0.5
CN(C)C(=O)c1cccc(-c2ccc3c(c2)[C@H]2[C@H](CCN2C(=O)c2cccnc2)[C@H](CO)N3)c1	-1	-1	0.1
CCCN1[C@@H]2c3ccc(-c4ccc(F)cc4)c(=O)n3C[C@@H]2[C@@H](CO)[C@@H]1C(=O)OC	1	3	-2.5
CCCN(C)C[C@H]1Oc2cc(C#CC3CCCCC3)ccc2S(=O)(=O)N([C@@H](C)CO)C[C@@H]1C	-4	0	-4.1
CC(=O)Nc1ccc2c(c1)C(=O)N(C)[C@H]1CC[C@H](CC(=O)NCc3ccc4c(c3)OCO4)O[C@@H]1CO2	-3	-4	1.4
CCCC(=O)N1C[C@@H]2[C@H](c3ccccc31)[C@H](CO)N2Cc1cocn1	0	1	-0.8
CC(=O)N1CC2(C1)[C@H](c1ccc(-c3ccc(C#N)cc3)cc1)[C@H](CO)N2C(C)=O	8	-2	9.9
N#C[C@H]1[C@H](c2ccc(-c3cccc(F)c3)cc2)[C@H](CO)N1C(=O)NC1CCCC1	2	3	-0.9
CO[C@H]1CN(C)C(=O)c2cc(NC(=O)c3ccccc3F)ccc2OC[C@H](C)NC[C@H]1C	2	5	-3.3
COCC(=O)Nc1ccc2c(c1)C(=O)N(C)[C@H]1CC[C@H](CC(=O)O)O[C@H]1CO2	-5	-6	1.4

Some of the compounds tested; the hit share may differ from the screen's.
